# BJeLR lethal = kills HRASV12-expressing BJeLR cells. BJeLR (HRASV12) viability, CellTiter-Glo ATP luminescence, 48 h; reference of the scale not given here. inhibition, % (no concentration beside the values). 0.17% of 300,000 active;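 active means replicate mean above 50%; inconclusive means above 50% but judged a plate artefact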;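 further: 50 nL library stock added to about 25 µL; numbers are from one replicate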
# Sa ugtP lethal = compounds lethal to S. aureus RN4220 ugtP deletion mutant. OD600 growth, 16 h; some inactives read as strong as hits. AID 1259309. 0.54% of 330,000 active. growth inhibition, % (no concentration beside the values);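 active means z-score under -3 and OD600 up to 0.15 on both plates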;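 further: plate controls were untreated wells for no effect and antibiotic for full effect; wells of about 80 µL received 100 nL stock; the first replicate is given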
# Autofluor counter = counter-screen for toxin protease inhibitors: compound fluorescence | compound autofluorescence counterscreen, microsphere flow cytometry; active compounds read high | fluorescence intensity (test concentration not listed) | 3.1% of 360,000 active | AID 624483;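 active means at least 3 SD above the mean of all compounds, about 16000 in these data; inconclusive means too few beads counted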;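 further: 100 nL of 1 mM stock went into each well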
# PrP UTR inh = suppresses PrP 5' UTR mRNA reporter expression; AID 488862; 0.35% of 340,000 active; inhibition, % (concentration not given with the values); cell-based PrP 5' UTR mRNA reporter, plate reader;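 active means every replicate at 50% or more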;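 further: 0 = median of the neutral control wells; tested in H4 reporter cells; numbers are from one replicate; inactives centre near -14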
# Mtb hypoxia inh = Mtb hypoxia fluorescent reporter inhibition; 0.1% of 300,000 active; AID 1159583; M. tuberculosis hypoxia-regulated fluorescent reporter, fluorescence; fluorescence inhibition, % (test concentration not listed);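 active means 35 to 45% if threefold the growth effect, above 45% if 1.5-fold the growth effect; inactive means the rest, general growth blockers included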;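 further: wells of about 50 µL received 100 nL stock; 0% = vehicle wells and 100% = reference inhibitor wells; whole bacteria with a GFP reporter of the hypoxia response; strong numbers were not always called active; many hits fall short of the cut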
# RN4220 kill = kills Staphylococcus aureus RN4220; S. aureus RN4220 growth, OD600, 16 h; inhibition, % (concentration not given with the values); 0.33% of 330,000 active; AID 1259311;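 active means z-score of -3 or lower and OD600 up to 0.18 on both plates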;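 further: plate controls were untreated cells for no effect and reference antibiotic for full effect; stock transfer was 100 nL into about 80 µL; one replicate is shown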
# Mtb hypoxia inh growth = also measured in Mtb hypoxia inh; calls as there; growth inhibition, %; measured here: M. tuberculosis growth (absorbance);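 0% = vehicle and 100% = reference antibiotic; read after six days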
# Numbers without * were called inactive; ? = inconclusive; · = not tested or not shown.
SMILES,BJeLR lethal,Sa ugtP lethal,Autofluor counter,PrP UTR inh,Mtb hypoxia inh,Mtb hypoxia inh growth,RN4220 kill
Cn1c(=O)n(CC(N)=O)c(=O)c2c1nc1n2CCCN1Cc1ccccc1,2,2,3921,-45,2,-12,-1.9
O=C(COC(=O)C1CCN(c2ccc(C(F)(F)F)cn2)CC1)Nc1ccc(Cl)cc1,1,-2,?,-10,-2,-10,-10
CN(C)CCCNC(=O)/C=C/c1ccc2c(c1)OCO2,5,·,8662,-28,·,·,·
Cn1c(=O)c2c(nc(N3CCN(C(=O)c4ccco4)CC3)n2CCSc2ncccn2)n(C)c1=O,-27,-71,3773,-29,11,2,13
O=C(Nc1ccc2c(c1)OCCO2)C1CCCC1,·,-1,?,57*,-1,0,-1.1
CC(NC(=O)c1cc(S(=O)(=O)N2CCOCC2)ccc1F)c1ccc(-n2ccnc2)cc1 (centres undefined),·,-4,3767,-18,-5,5,3.6
Cc1cccc(C(=O)N2CCN(c3ccc(N4CCOCC4)nn3)CC2)c1,13,7,5278,-6,12,-4,5.6
COc1ccc(C(CNC(=O)CNC(=O)c2ccccc2Cl)N2CCCC2)cc1 (centres undefined),2,7,7350,-19,9,4,1.8
O=C(ON=C1CCCc2ccccc21)c1ccc(F)cc1,·,1,·,·,4,-6,2.6
OCCC1CN(Cc2cccnc2)CCN1CCc1ccccc1 (centres undefined),10,2,4330,-22,-4,-4,2.4
CCN(C(=O)COC(=O)C1CCN(S(=O)(=O)c2cccs2)CC1)c1ccccc1,1,6,4002,-27,12,17,2.8
COCCCNC(=S)Nc1cc(C)c(C)cc1C,5,-2,4315,-16,12,0,2.2
CCOC(=O)c1ccc(NC(=O)c2cc(=O)[nH]c3ccccc23)cc1,1,-2,4188,-21,3,8,2.9
O=C(CCOc1cccc(Br)c1)NNC(=O)COc1ccc(F)cc1,·,4,5437,-23,-2,-11,3.3
CNS(=O)(=O)c1cccc(C(=O)OCc2csc(-c3ccccc3)n2)c1,-6,-2,2714,-22,7,-1,6.6
COc1ccc(CCNC(=O)C2CCN(S(=O)(=O)c3ccc(-n4cnnn4)cc3)CC2)cc1OC,3,-2,7606,-15,-8,-2,5.2
CCOc1ccccc1N1CN(Cc2ccccc2)CNC1=S,-10,3,·,·,-8,4,6.6
CCOC(=O)Cn1nc(-c2ccc(Cl)cc2)cc1N,0,6,9372,-25,16,6,0.6
Cn1c(=O)oc2cc(S(=O)(=O)NCCCN3CCCC3=O)ccc21,5,-5,6589,5,0,4,3.2
O=C(Nc1nn[nH]n1)C12CC3CC(CC(C3)C1)C2,-13,3,12809,-22,3,1,5.9
CCc1ccccc1SCc1noc(C(=O)NCC2CCCO2)c1C(=O)O (centres undefined),-15,5,3681,-6,-1,-1,7.6
Cc1c(CCOC(=O)c2cc([N+](=O)[O-])ccc2Cl)sc[n+]1CCCCS(=O)(=O)[O-],6,-10,3328,-23,-8,-3,-3.7
NC(=O)COC(=O)C1CSC2(c3ccc(F)cc3)CCC(=O)N12 (centres undefined),-3,-5,3584,-19,4,2,-4.7
CCOC(=O)CCc1c(C)c2ccc(OCc3ccc([N+](=O)[O-])cc3)cc2oc1=O,0,-9,?,-8,2,5,0.3
CC1(C)N=C(N)N=C(N)N1c1cccc(C(=O)O)c1,-7,1,8696,-41,10,4,3.9

# Just Mtb hypoxia inh, for 5 of the compounds above:
Compound,Mtb hypoxia inh
O=C(CCOc1cccc(Br)c1)NNC(=O)COc1ccc(F)cc1,-2
CNS(=O)(=O)c1cccc(C(=O)OCc2csc(-c3ccccc3)n2)c1,7
COc1ccc(CCNC(=O)C2CCN(S(=O)(=O)c3ccc(-n4cnnn4)cc3)CC2)cc1OC,-8
CCOc1ccccc1N1CN(Cc2ccccc2)CNC1=S,-8
CCOC(=O)Cn1nc(-c2ccc(Cl)cc2)cc1N,16

# More results follow.
SMILES,BJeLR lethal,Sa ugtP lethal,Autofluor counter,PrP UTR inh,Mtb hypoxia inh,Mtb hypoxia inh growth,RN4220 kill
CCOc1ccc(CNC(=O)CCCC(=O)n2nc(C)c3ccccc32)cc1,2,-3,5481,-20,-2,1,-3.7
Clc1cc2cccnc2c2ccccc12,5,22,2296,-30,9,5,1.2
CC12CCC(=O)N1c1ccccc1C(=O)N2c1ccccc1 (centres undefined),-7,-5,13085,-26,3,-2,3.3
COc1cc2c(cc1OC)C1c3ccc(OC)c(OC)c3OCC1(O)C2 (centres undefined),·,0,4020,-33,2,6,5.1
O=C1c2cccc3c([N+](=O)[O-])ccc(c23)C(=O)N1CC1CCCO1 (centres undefined),-6,16,3534,-29,-8,26,1.1
CC(C)(C)c1cc(Cl)ccc1OCCOCCN1CCCC1,1,2,·,-6,17,-5,-6.0
Cc1oc(-c2ccc3c(c2)OCCO3)cc1C(=O)O,12,-6,9609,-68,2,0,6.1
CCOc1ccc(Oc2ccc(Cl)cc2NC(=O)C2=COCCO2)cc1,1,8,4782,-6,6,-12,-6.0
N#CN=C1SCCS1,·,-3,4561,-21,·,·,-0.7
Cc1cc(/C=C2/C(=N)N3C(c4ccccc4)=CSC3=NC2=O)c(C)n1-c1ccc(Cl)cc1,·,10,3476,-15,-9,-9,0.8
Cc1ccc(C(=O)C(C)OC(=O)Cn2c(C)csc2=O)cc1 (centres undefined),-2,0,4307,-10,7,-1,2.1
CC1C=CCC2C(=O)N(c3cccc(C(=O)NCCc4ccccc4)c3)C(=O)C12 (centres undefined),-2,3,2898,-9,7,2,4.4
Cc1cc2cc(C=C(C#N)C#N)c(Cl)nc2cc1C,11,7,2089,-53,17,12,2.4
Cc1ccccc1NC(=O)Cc1nc(COC(=O)C(NC(=O)c2ccccc2C)C(C)C)cs1 (centres undefined),·,0,3796,-16,-2,5,0.7
CCOc1ccc(CCNC(=O)CSc2nn(-c3ccc(C)c(Cl)c3)c(=S)s2)cc1OCC,-2,-2,9317,12,-1,7,3.6
COc1ccc(/C(C)=N/N=C(N)N)c(OC)c1,1,·,3605,-25,·,·,·
CCOc1ccc(CNC(=O)C2Cc3cc(S(=O)(=O)N4CCCC4)ccc3N2C(C)=O)cc1 (centres undefined),-5,7,5186,11,-2,-9,2.8
CC(C)c1nc(N2CCN(C(=O)c3ccco3)CC2)c2c3c(sc2n1)CCCC3,-1,65,9829,-6,4,0,8.8
CCCCNC(NCCCC)=C(S(=O)(=O)CC)S(=O)(=O)CC,8,0,8505,-22,-1,4,0.5
COCCSc1ccccc1C(=O)N1CCc2ccccc2C1,5,0,4398,-14,10,6,6.0
CCN(C(=O)COC(=O)c1ccccc1Nc1ccccc1)c1c(N)n(Cc2ccccc2)c(=O)[nH]c1=O,·,-8,3589,-15,-7,3,3.7
CCCCCC1NC(=O)NC1CCCCCC(=O)O (centres undefined),2,-6,18045*,-8,3,6,5.8
c1coc(CN(Cc2ccco2)c2ncnc3c2oc2ccccc23)c1,-1,-2,19845*,-7,7,7,0.7
COc1ccccc1N1CCN(C(=O)c2n[nH]c3ccccc23)CC1,-4,-1,4620,-20,-5,4,3.2
CC(O)C1CNCCN1CCc1cccc2ccccc12 (centres undefined),·,-2,·,·,8,12,1.1

# Next part:
SMILES,BJeLR lethal,Sa ugtP lethal,Autofluor counter,PrP UTR inh,Mtb hypoxia inh,Mtb hypoxia inh growth,RN4220 kill
COC(=O)c1cc(NS(=O)(=O)c2ccc3c(c2)c(=O)n(C)c(=O)n3C)cc(C(=O)OC)c1,9,8,4288,-18,4,2,6.0
COc1ccc(CSc2nnc(C)n2N)cc1[N+](=O)[O-],6,3,3428,-2,16,0,1.6
CCN(CC)S(=O)(=O)c1ccc(Cl)c(OC)c1,8,-2,15898,-6,0,5,-0.2
CC(=O)c1ccc(OCC(=O)NC2CCCCCC2)cc1,·,1,?,5,3,8,2.1
CS/C(=N\S(=O)(=O)c1ccc(Cl)cc1)c1ccccc1,-3,·,10561,-8,·,·,·
O=C(Nc1ccccc1Cl)c1ccccc1Cc1ccccc1,3,20,9387,-23,1,2,0.9
CC(C)CSc1nc2ccccc2c(=O)[nH]1,-1,-5,2886,-15,16,7,-4.8
O=C(CCc1ccccc1)NC1CCSC1=O (centres undefined),5,2,9413,-15,-1,6,1.0
COc1cccc(OC)c1OCC(O)CN1CCN(c2ccccc2F)CC1 (centres undefined),3,4,3824,-10,-14,7,-0.7
Cn1cnnc1SCC(=O)NC1CCCCCC1,-4,-6,·,-4,0,-1,1.9
Cc1ccc2c(c1)C1CN(C)CCC1N2C(=O)COc1ccc(N(C)C(=O)C(C)(C)C)cc1 (centres undefined),-27,2,3449,-3,-2,2,1.3
NC(=O)NOCc1ccc(Cl)cc1Cl,2,-5,4907,-23,-2,-3,4.0
CC(=O)OCC(=O)Nc1ccc([N+](=O)[O-])cc1Cl,-5,3,1933,-12,2,14,3.2
CCCN(C(=O)c1cccc(S(=O)(=O)N2CCN(C)CC2)c1)c1c(N)n(Cc2ccccc2)c(=O)[nH]c1=O,5,2,6385,-15,1,-2,3.0
NC(CCN1CCOCC1)=NO,·,-1,·,·,9,9,2.7
CCOCCCN(C(=O)Cn1nnc(-c2ccc(OC)c(OC)c2)n1)C(CC)C(=O)NC1CCCC1 (centres undefined),·,-11,3364,-8,-4,1,0.4
Cc1ccc(OC(C)C(=O)OCC(=O)Nc2sccc2C(N)=O)cc1 (centres undefined),·,4,4013,-10,6,7,5.9
Cc1cc(NC(=O)CSc2nnc(-c3ccco3)n2Cc2ccco2)no1,9,3,19201*,-19,7,10,10
C=CC(C)N1C(=O)S/C(=C\c2ccc(N3CCOCC3)cc2C)C1=O (centres undefined),5,-10,2814,-42,4,5,5.3
CC(C)(CO)NC(=O)C12CC3CC(CC(Br)(C3)C1)C2,2,5,3310,-37,6,-3,5.0
CCOc1ccc(CCNC(=O)C(O)c2ccccc2)cc1 (centres undefined),-4,7,4402,-24,·,·,2.2
Cn1cc(CN2CCCC(C(=O)c3cc(F)ccc3F)C2)c2ccccc21 (centres undefined),-8,6,4789,-19,-2,8,-1.8
CN(C(=O)COC(=O)c1ccc([N+](=O)[O-])cc1Cl)C1CCCCC1,3,7,4664,-54,18,22,-7.8
CCOc1ccccc1N(CC(=O)Nc1ccccc1C(=O)NCc1ccco1)S(C)(=O)=O,5,-1,5147,-13,1,2,3.8
Cc1[nH]c2ccccc2c1C=NNC(=O)CNC(=O)COc1ccccc1,·,-3,·,·,8,17,2.7

# Ordered by molecular weight (ascending): part of the list above
SMILES,BJeLR lethal,Sa ugtP lethal,Autofluor counter,PrP UTR inh,Mtb hypoxia inh,Mtb hypoxia inh growth,RN4220 kill
NC(CCN1CCOCC1)=NO,·,-1,·,·,9,9,2.7
CC(C)CSc1nc2ccccc2c(=O)[nH]1,-1,-5,2886,-15,16,7,-4.8
COc1ccc(CSc2nnc(C)n2N)cc1[N+](=O)[O-],6,3,3428,-2,16,0,1.6
Cc1ccc(OC(C)C(=O)OCC(=O)Nc2sccc2C(N)=O)cc1 (centres undefined),·,4,4013,-10,6,7,5.9
CCOc1ccccc1N(CC(=O)Nc1ccccc1C(=O)NCc1ccco1)S(C)(=O)=O,5,-1,5147,-13,1,2,3.8

# Going on with the list:
SMILES,BJeLR lethal,Sa ugtP lethal,Autofluor counter,PrP UTR inh,Mtb hypoxia inh,Mtb hypoxia inh growth,RN4220 kill
CN(CC(=O)Nc1cccc(F)c1)C(=O)c1ccc(COc2ccccc2)cc1,-2,8,?,-30,4,0,0.2
O=C(CCN1C(=O)C2C3C=CC(C3)C2C1=O)N1CCN(c2ccccc2F)CC1 (centres undefined),-1,0,2681,-6,·,·,-4.1
N#CCc1ccc(NC(=O)CSc2nnc(C3CC3)n2C2CC2)cc1,·,6,3785,-21,10,-7,2.6
CCN1C(c2ccccc2)=C(c2ccccc2)S/C1=C/C=C1\SC(=S)N(C)C1=O,·,2,2608,-5,12,8,-0.9
CN(C)Cc1c(O)ccc2c(=O)c(-c3ccccc3)c(C(F)(F)F)oc12,2,10,3507,-12,5,-2,5.1
CCN(Cc1cc2cc(OC)ccc2[nH]c1=O)C(=O)Cc1ccc(OC)cc1,1,-1,3220,-5,·,·,2.8
CCOC(=O)NC(=O)/C(C#N)=N\Nc1cccc(OC)c1,5,·,4630,-14,·,·,·
CCC(C(=O)Nc1ccc(C)cc1)c1ccccc1 (centres undefined),4,3,3774,-11,4,-4,2.9
Cc1cccc(NC(=O)C2CC3CCC2C3)c1C (centres undefined),-13,5,4338,-3,18,4,2.3
CCOc1ccc(-c2nc(-c3cccs3)c(CC(=O)O)s2)cc1OC,2,11,3893,-2,-6,-5,4.5
CCOC(=O)c1nnn(-c2nonc2N)c1-c1ccc(C)cc1,-4,-4,3197,-1,14,13,-1.4

# Compounds were not picked by outcome, and some 4% of all compounds hit somewhere here.
